# Source: PubChem BioAssay (several laboratories)
# CSC inhib = cancer stem cell viability inhibitors, primary screen, luminescence | cancer stem cell-like cells viability | inhibition, % at 7.5 µM | hit rate 1.1% among 300,000;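 active = mean at 75% or more and at least half the replicates too; inconclusive = mean and replicates disagree; tested in HMLE shEcad cells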;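 note: 0% = median of negative and 100% = median of positive control wells; the first replicate is given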
# MT1-MMP act inh = blockers of MT1-MMP proenzyme processing, primary screen, HT1080 RFP-PRO-GFP cells, GFP/RFP fluorescence | AID 651647, 2012 | Matrix metalloproteinase-14 (Homo sapiens), P50281 | GFP/RFP ratio fluorescence, overnight; percent of plate control window, DMSO zero | hit rate 0.061% among 360,000 | GFP/RFP ratio change, % at 20 µM;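 active = GFP/RFP ratio change of at least 30% with cell ATP level not reduced by more than half and red fluorescence within 50% of control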; note: strong numbers were not always called active
#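 Test system: HT1080 cells expressing an RFP-PRO-GFP fluorescent reporter construct / Compound dosing: single-point 20 µM compound, 1% DMSO / Schedule: cells overnight before dosing, compound overnight, 37 °C, 5% CO2 / Evaluation: GFP/RFP fluorescence ratio / Control set: DMSO and RFP-L50D-GFP cell wells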
# eIF4H FP inh = human eIF4H binding inhibitors, primary screen, translation initiation inhibitor project, biochemical, uHTS, fluorescence polarization | Eukaryotic translation initiation factor 4H (Homo sapiens), Q15056 | eIF4H fluorescence polarization binding assay | inhibition, % at 35 µM | hit rate 0.94% among 290,000 | AID 2012, 2009;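 active = 50% or more with normal probe brightness, or confirmed in later tests; inconclusive = above 50% with abnormal brightness, or retests that disagree; inactive = below 50% or failed in later tests; about a fifth of its hits are not listed in these tables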;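 note: calls also rest on retests at 20 µM and on dose response follow-up; 0% = protein and probe with vehicle and 100% = probe without protein; strong numbers were not always called active; many hits fall short of the cut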
# UUG fidelity = modulators of yeast start codon fidelity, primary screen, whole organism, S. cerevisiae, single point, plate reader. AID 602363, 2012. S. cerevisiae UUG-firefly luciferase reporter, luminescence/redox ratio. activity score, % at 18.7 µM. hit rate 0.13% among 350,000;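 active = replicate mean at a twofold rise or more, about +100% in these data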;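 note: firefly luciferase made from a UUG start codon reports start codon fidelity; reporter light over untreated wells divided by growth signal over untreated wells; some hits fall short of that in this replicate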
# PABP polyA inh = PABP poly(A) RNA binding inhibitors, primary screen, biochemical, fluorescence polarization, uHTS | Polyadenylate-binding protein 1 (Homo sapiens), P11940 | hit rate 1% among 290,000 | inhibition, % at 35 µM;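 active = 50% or more with normal probe brightness, or confirmed in later tests; inconclusive = above 50% with abnormal brightness, or retests that disagree; inactive = below 50% or failed in later tests; about a fifth of its hits are not listed in these tables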;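 note: calls also rest on retests at 20 µM and on dose response follow-up; controls were probe without protein and protein plus probe with vehicle; some compounds called inactive have numbers as strong as hits; many hits fall short of the cut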
# Target sequence (P11940 whole entry, looked up): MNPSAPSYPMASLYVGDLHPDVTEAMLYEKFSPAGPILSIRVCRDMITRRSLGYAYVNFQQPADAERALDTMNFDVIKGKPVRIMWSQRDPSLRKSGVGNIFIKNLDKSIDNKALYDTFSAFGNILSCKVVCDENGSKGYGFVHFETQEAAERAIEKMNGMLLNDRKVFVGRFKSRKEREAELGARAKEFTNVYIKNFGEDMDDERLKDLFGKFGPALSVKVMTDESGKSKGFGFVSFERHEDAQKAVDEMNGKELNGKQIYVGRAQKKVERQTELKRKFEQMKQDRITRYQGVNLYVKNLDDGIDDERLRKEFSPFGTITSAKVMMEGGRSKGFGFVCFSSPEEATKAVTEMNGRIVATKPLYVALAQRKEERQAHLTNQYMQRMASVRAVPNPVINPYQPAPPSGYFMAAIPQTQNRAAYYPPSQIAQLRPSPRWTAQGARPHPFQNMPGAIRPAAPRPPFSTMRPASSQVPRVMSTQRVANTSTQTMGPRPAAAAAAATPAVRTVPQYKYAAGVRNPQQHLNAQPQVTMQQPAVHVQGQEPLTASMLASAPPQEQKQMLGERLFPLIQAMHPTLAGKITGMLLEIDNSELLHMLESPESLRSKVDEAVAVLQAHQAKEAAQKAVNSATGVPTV
# Rce1 inhib = yeast Rce1p protease inhibitors, primary screen, biochemical, fluorescence, cell-free homogeneous. CAAX prenyl protease 2 (Saccharomyces cerevisiae (strain ATCC 204508 / S288c)), Q03530. yeast membranes, quenched prenylated peptide cleavage fluorescence. calls only. hit rate 0.27% among 290,000. AID 2563, 2010;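 active = fall in fluorescence gain of 50% or more versus controls, with final raw signal at or below 3038400; inconclusive = same 50% fall but final raw signal above 3038400; inactive = fall in fluorescence gain under 50%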;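 note: plate controls were neutral control wells for no effect and wells lacking membranes for full effect; tested at 10 µM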
# Target sequence (Q03530 whole entry, looked up): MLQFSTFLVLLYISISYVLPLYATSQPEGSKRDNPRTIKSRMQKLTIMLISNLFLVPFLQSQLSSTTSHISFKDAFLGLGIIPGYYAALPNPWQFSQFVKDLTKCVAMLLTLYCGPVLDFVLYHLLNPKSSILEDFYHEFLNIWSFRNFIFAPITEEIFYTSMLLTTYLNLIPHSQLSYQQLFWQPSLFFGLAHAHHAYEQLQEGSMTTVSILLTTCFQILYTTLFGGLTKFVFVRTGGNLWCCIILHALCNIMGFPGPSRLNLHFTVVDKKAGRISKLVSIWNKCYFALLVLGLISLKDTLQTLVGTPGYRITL
# HIV Env fusion = inhibitors of HIV-1 Env-driven cell-cell fusion, primary screen, HeLa-JRFL effector, CEM21 target cells, luciferase. inhibition, % at 12.3 µM. hit rate 1.1% among 360,000;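 active = mean replicate inhibition score of at least 50 and every replicate individually at or above 50; inconclusive = only one of the two criteria met; inactive = mean below 50 and not all replicates reaching 50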;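 note: 0% = plate neutral controls and 100% = maraviroc near 300 nM; one replicate is shown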
# eIF4H FP inh retest = further read-out of eIF4H FP inh, marked with its call; inhibition, %; compound at 20 µM; confirmation average;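 mean of two retest wells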
# PABP polyA inh retest = also measured in PABP polyA inh; calls as there; inhibition, %; compound at 20 µM; confirmation repeats;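 mean of two retest wells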
# MT1-MMP act inh RFP = also measured in MT1-MMP act inh; calls as there; RFP signal change, %; measured here: RFP expression control read;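 0 = vehicle wells; hits needed this value within 50% of zero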
# * hit, by the source's call; i = inactive; ? = inconclusive; / = no result given. An excerpt. The share of hits here may be higher or lower than overall.
SMILES,CSC inhib,MT1-MMP act inh,MT1-MMP act inh RFP,eIF4H FP inh,UUG fidelity,PABP polyA inh,Rce1 inhib,HIV Env fusion,others
COc1ccc(Br)cc1CN(C)CC(=O)Nc1cc(Cl)ccc1Cl,59.7,-1.0,-1.5,-8.2,-25.8,-4.8,i,20.3,
Cc1ccc(N2CC(C(=O)NCc3ccco3)CC2=O)cc1Cl (stereo not drawn),2.3,-1.9,-1.7,-1.2,-6.5,-3.2,i,-7.6,
CC1CN(S(=O)(=O)c2cccc(C(=O)Nc3cc(Cl)ccc3N3CCOCC3)c2)CC(C)O1 (stereo not drawn),-6.2,-4.0,-5.4,/,8.7,/,/,/,
O=C(NCc1ccccc1Cl)C(=O)NCC1OCCN1S(=O)(=O)c1cccs1 (stereo not drawn),3.4,5.4,3.7,-5.8,/,-10.9,i,-5.2,
COc1ccccc1CNC(=O)C[C@@H]1C[C@H]2c3cc(NC(=O)c4ccc5c(c4)OCO5)ccc3O[C@H]2[C@@H](CO)O1,/,4.2,2.4,/,-11.4,/,/,25.2,
C=CCn1c(=NC(=O)C2CC2)sc2cc(NC(C)=O)ccc21,-1.2,-0.8,1.6,-0.1,-5.0,1.9,i,-13.3,
NC(=O)c1ccccc1NC(=O)CCn1c(=S)oc2ccccc21,/,0.0,3.7,-7.8,-11.5,3.3,i,2.4,
CS(=O)(=O)c1nc(-c2ccc(F)cc2)cc(C(F)(F)F)n1,/,0.3,-8.2,2.2,/,-3.5,/,-14.9,
COc1ccc(/C=N/n2c(=O)[nH]c3c([nH]c4ccc(Br)cc43)c2=O)cc1CN1CCOCC1,-15.8,4.9,-4.4,0.7,14.6,-16.8,i,-302.2,
COc1ccc(C2C(C(=O)N3CCCC3)CC(=O)N2c2ccc(OC)cc2)cc1 (stereo not drawn),-2.6,0.7,0.8,7.1,-5.1,-5.7,i,-72.8,
O=C(OCC(=O)c1c[nH]c2ccccc12)C1=COCCO1,-10.3,2.4,2.9,-5.3,-10.7,9.8,i,-21.9,
CCOc1cc(N2CCOCC2)c(OCC)cc1NC(=O)c1cc(S(=O)(=O)N2CCOCC2)ccc1Cl,/,-0.4,-1.2,/,11.5,/,/,-41.4,
COC(=O)c1c(SCc2cccc3ccccc23)nc(=O)[nH]c1C,24.4,-5.1,-7.0,-2.9,-10.1,7.1,i,-0.9,
Nc1nc(N)nc(-c2ccc(Cl)cc2)n1,-0.3,-6.2,-1.2,-6.6,-15.2,8.5,/,-69.0,
COCCn1cnc2c1c(=O)n(CC(=O)OCC(=O)NCC(F)(F)F)c(=O)n2Cc1ccccc1,-19.9,-3.6,-4.2,-4.4,/,72.1,i,9.7,eIF4H FP inh retest=-1.6;PABP polyA inh retest=0.2
CC(=O)C1CCCN(C(=O)c2ccc3oc(CCc4ccccc4)nc3c2)C1 (stereo not drawn),7.3,-2.7,-10.0,7.2,-11.5,6.3,i,-19.7,
COc1cc(C(=O)ON=C2C(C)=CC(=O)C=C2C)cc(OC)c1OC,15.0,-1.4,4.5,3.7,-18.2,2.7,i,?,
O=C(COC(=O)c1ccco1)Nc1ccccc1[N+](=O)[O-],-14.3,-2.8,2.4,3.9,/,4.9,i,-7.1,
COc1cccc(CN2CCN(C3CCOCC3)CC2CCO)c1 (stereo not drawn),/,-2.0,3.0,4.5,-24.5,-4.5,i,5.0,
CCNc1nc(NCC)nc(N2CC(=O)N(CC(=O)OCC)C2=N)n1,7.2,-1.9,0.7,/,/,/,i,/,
CN1CCN(NC(=O)c2c(-c3ccccc3)sc3ccccc23)CC1,8.9,-0.4,2.6,/,1.1,/,/,11.0,
Cc1ccccc1OCC(=O)OCC(=O)NCC1CCCO1 (stereo not drawn),-9.9,-0.6,2.2,8.0,/,9.1,/,4.5,
CC(/C=C1\SC(=S)N(NC(=O)c2ccccc2C)C1=O)=C\c1ccccc1,-0.3,-0.6,5.9,6.6,/,-10.4,i,5.0,
Cc1ccc(Cl)c(NC(=O)CSc2n[nH]c(=O)n2C2CC2)c1Cl,-8.9,-0.7,-2.8,/,-8.8,/,/,/,
Cc1ccc(C)c(OC(=O)c2cccnc2Cl)c1C,7.1,-2.0,-2.3,0.9,-8.7,1.4,i,-27.8,
O=C(COc1ccc2ccccc2c1)NCCc1ccc2c(c1)OCCO2,-7.2,3.5,-0.7,-4.4,-0.8,0.3,i,26.8,
O=S(=O)(c1ccccc1OC(F)(F)F)N1CCN(c2ccnc3cc(Cl)ccc23)CC1,23.1,-0.6,-9.3,-4.2,14.2,1.4,i,8.7,
Cc1cccnc1CCNC(=O)CCc1nnc(-c2ccccc2)o1,-9.8,1.5,4.0,-4.2,/,-7.7,i,-5.4,
O=C(Cn1c(=O)c(=O)n(Cc2ccccc2)c2ccc(Cl)cc21)Nc1ccc(F)cc1F,51.4,-1.9,-14.9,-5.3,/,-8.4,i,11.1,
Cc1cc(C)n(CC(=O)N2c3ccccc3Sc3ccc(C(F)(F)F)cc32)n1,-14.6,-6.2,-4.2,1.5,-57.3,6.4,i,-92.3,
COc1ccc(C(C(=O)NC2CCCC2)N(C(=O)c2ccco2)c2cccc(C(C)=O)c2)cc1OC (stereo not drawn),-7.4,-2.2,0.2,-4.5,4.5,4.9,i,-11.4,
Cc1ccc(CN2CC(=O)N3[C@H]4c5cc(C)ccc5OC[C@@H]4[C@H](c4ccccc4)[C@]3(C)C2=O)cc1,24.3,-3.1,-4.7,/,-5.8,/,/,29.7,
O=C1CC(Nc2ccc(N3CCOCC3)cc2)C(=O)N1CCc1ccccc1 (stereo not drawn),-1.0,6.7,13.2,-5.4,-5.8,-7.0,i,14.0,
N#CCCN(C(=O)COC(=O)c1ccc(S(=O)(=O)N2CCCC2)cc1)c1cccc(Cl)c1,-1.4,1.3,2.3,/,-4.3,/,/,-5.8,
O=C(Nc1nnc(-c2ccccc2F)s1)C1CCCO1 (stereo not drawn),/,-1.9,1.0,11.4,-19.9,-9.0,i,-276.3,
Cc1nn(-c2ccccc2)c(C)c1/C=N/NC(=O)c1cccs1,/,7.0,4.6,-6.8,-10.2,-9.2,i,/,
CC(NCCC(Cc1ccccc1)c1ccco1)c1ccccc1 (stereo not drawn),6.4,-1.6,-4.6,-8.0,-6.9,-5.5,i,13.9,
Cc1ccc(C)c(NC(=O)CN(C)C(=O)c2ccccc2OCc2ccc(Cl)cc2)c1,7.9,-0.5,-6.0,/,/,/,i,22.8,
CNC(=O)CN1C(=O)NC(c2ccccc2)(c2ccccc2)C1=O,-3.6,3.8,1.6,-14.1,-5.4,-6.2,i,-9.2,
O=C(NCC(=O)N1CCN(c2ccccc2)CC1)c1ccc(Br)o1,-7.6,-2.7,1.3,-4.7,-4.1,5.7,i,-16.2,
CCC(=O)N1CCc2cc(Br)cc(S(=O)(=O)N3CCN(C(=O)c4ccco4)CC3)c21,-8.5,6.5,4.7,1.8,0.4,-2.0,i,8.9,
O=C(CNc1ccc(Cl)cc1)NNC(=S)NCc1ccccc1,5.2,2.0,-4.6,6.4,/,1.5,i,-3.9,
CSc1ncccc1C(=O)N1CCCC(CCC(=O)NCc2ccc(F)c(F)c2)C1 (stereo not drawn),-8.7,-1.8,-0.3,-1.9,/,-2.8,/,21.1,
O=C(NC1CCCCC1)c1cc(-c2ccc(O)cc2)on1,45.1,2.1,-3.6,-7.4,-15.7,-4.7,i,-59.4,
CC1CCCCC1N=C1NC(C)(C)CS1 (stereo not drawn),-17.1,2.0,3.4,-1.6,/,9.7,i,-4.3,
COC(=O)c1oc(-c2ccc(Cl)cc2)nc1C,-8.3,-1.9,-0.5,-5.2,/,-4.9,i,-41.2,
O=C(c1ccc(COc2ccccc2Br)o1)N1CCCCCC1,17.7,-5.0,-8.9,5.4,0.6,-0.7,i,/,
COc1ccc(-c2ccc(/C=C3\C(=O)N(c4ccccc4)N=C3c3ccccc3)o2)c([N+](=O)[O-])c1,-10.0,0.0,-2.8,3.6,-5.2,-0.6,i,-98.1,
O=C(CSc1nc(-c2ccccc2)cs1)N1CCc2ccccc21,5.9,9.3,42.1,-4.9,-3.8,-5.0,i,-41.9,
Cc1cc(NC(=O)CCC(=O)N(Cc2cccnc2)C(C(=O)NC(C)(C)C)c2ccccc2Cl)no1 (stereo not drawn),-5.3,0.6,1.0,-9.2,6.2,10.9,i,25.5,
COc1cc(NC(=S)NC(=O)c2c(OC)cccc2OC)ccc1NC(=O)c1cccs1,8.1,0.7,1.7,-0.7,-35.3,-8.4,i,/,
NC(=O)CC(NC(=O)Cc1ccc(Br)cc1)c1ccc(NCc2cc(F)ccc2F)c([N+](=O)[O-])c1 (stereo not drawn),?,6.5,-2.9,-14.3,-9.5,-3.0,i,-7.6,
Cc1cccc(C)c1NC(=O)/C(=C/c1ccco1)c1ccccc1,14.1,-15.9,-0.8,10.1,-7.1,7.6,i,/,
Cc1ccc(CN2CCN(/N=C/c3ccc(Cl)c([N+](=O)[O-])c3)CC2)cc1,-9.0,-1.1,-0.7,-8.3,-8.0,0.1,i,-60.0,
CCCC(=O)N1CCCC(c2cc(C(=O)NCc3ccccc3)no2)C1 (stereo not drawn),/,-2.4,-3.7,/,-10.3,/,/,-7.2,
Cc1cccc(Nc2nc(N)nc(CSc3nccc(C)n3)n2)c1,-5.3,4.9,0.6,-9.0,-17.7,37.3,i,-66.3,
CCOC(=O)c1c(-c2ccc(OCC)cc2)csc1NC(=O)CCN1C(=O)c2ccccc2C1=O,55.5,/,/,0.6,/,-1.3,i,/,
Cc1nc2cc(-c3ccsc3-n3c(C)ccc3C)[nH]n2c(=O)c1Cl,1.9,-81.0,19.7,85.0*,-13.6,83.1*,i,/,
Cc1ccc(-c2nn3c(C)nnc3s2)cc1NC(=O)CSc1ccc(Cl)cc1,3.6,6.3,5.5,-4.6,-9.8,10.8,i,24.1,
CN1CCC(=O)N([C@H](CC#N)c2ccccc2)CC1,-5.3,-3.3,1.0,6.7,-10.3,-1.0,i,3.2,
CCOc1cc(C#N)c(NC(=O)c2cccnc2Cl)cc1OCC,1.2,1.4,1.3,4.1,-13.7,-1.2,i,-19.9,
O=C(NNC(=O)c1ccc2c(c1)OCO2)NC12CC3CC(CC(C3)C1)C2,12.8,0.4,1.4,-5.4,0.7,-2.3,i,7.0,
CSc1ccc(C(c2c(C(=O)O)[nH]c3ccccc23)c2c(C(=O)O)[nH]c3ccccc23)cc1,-5.2,-1.7,8.3,53.4*,23.1,22.7,i,7.7,eIF4H FP inh retest=52.8*;PABP polyA inh retest=21.6
